Menin-MLL FL inh: qHTS Assay for Inhibitors Targeting the Menin-MLL Interaction in MLL Related Leukemias: Competition With Fluorescein Labeled MLL-derived Peptide; Fluorescence polarization, fluorescein-MLL peptide displacement from menin; FP activity change, % at 61.4 µM; 290,000 tested, under 10 active; AID 1766, 2009; inconclusive = falling polarisation curve, or a change in total fluorescence; inactive = total fluorescence flat and polarisation flat or rising; no compound was filed as active; the % refers to the polarisation; negative = inhibition;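 further: % of control where 0% means no effect; inhibitors lower the polarisation; unlabelled MLL peptide was the positive control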
gsp antag: qHTS for Antagonists of gsp, the Etiologic Mutation Responsible for Fibrous Dysplasia/McCune-Albright Syndrome: qHTS | gsp-mutant cells, cAMP HTRF, 30 min; control for the full effect not named in the record | 340,000 compounds, 0.4% hits | Potency, µM (highest dose often 76.9 µM), inactives show top-dose activity change, negative = inhibition, hits mostly inhibitors; active = falling curve of any shape with a large fitted effect; inconclusive = falling curve, mostly with a smaller effect; inactive = flat or rising curve; cell line not stated here;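 further: intracellular cAMP measured with PDE inhibitor Ro 20-1724 present during compound exposure; potency means the concentration at half of the fitted maximal effect; on the % scale 0 is the no-effect control and ±100 the full control effect; nearly all actives have a fitted effect of over 65% in size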
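Measurement of cellular cAMP by homogeneous time-resolved fluorescence following a 30 min compound exposure at 37C. The PDE inhibitor […] was present throughout; the assay buffer was DPBS with 0.05% BSA and 0.005% Tween 20.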
ClpP mod: qHTS Assay for Activators of ClpP; ATP-dependent Clp protease proteolytic subunit (Bacillus subtilis (strain 168)), P80244; purified B. subtilis ClpP, FRET peptide cleavage, 20 min; Potency, µM (series often up to 57.5 µM), without a hit: at the top dose activity change, negative = active; 340,000 compounds, 1.9% hits; AID 651965, 2013; active = well fitted falling curve with a large enough effect; inconclusive = small, poorly fitted or top-dose-only effect; inactive = no such curve, though single readings can be large or run the other way; further: potency means the concentration at half of the fitted maximal effect; the source files actives as falling curves though it sought activators and does not explain the sign; nearly all actives have a fitted effect of over 65% in size; many hits overshoot -100%
Target sequence (P80244 whole entry, looked up): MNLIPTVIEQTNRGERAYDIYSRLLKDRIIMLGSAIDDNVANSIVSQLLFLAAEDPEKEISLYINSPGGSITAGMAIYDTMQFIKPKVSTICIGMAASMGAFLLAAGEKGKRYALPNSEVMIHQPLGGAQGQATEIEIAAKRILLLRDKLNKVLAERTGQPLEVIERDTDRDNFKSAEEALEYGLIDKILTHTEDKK
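ClpP 10 microg/mL final, pH 8 Tris/KCl buffer with BSA, glycerol, Tween-20; compound pinned in; FRET-FV substrate; RT 20 min; Ex320/Em430; ΔFRET vs ADEP 5.8 microM, DMSO, no enzyme.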
TRPV1 PAM: HTS Assay for Compounds that Act as Potentiators of the Vanilloid Receptor 1; Transient receptor potential cation channel subfamily V member 1 (Homo sapiens), Q8NER1; TRPV1-expressing cells, Fluo-8 calcium influx, capsaicin EC20 potentiation; host cell line not named in the record; control for the full effect not named in the record; potentiation, % at 8.33 µM; 320,000 compounds, 0.02% hits; AID 540277, 2011; active means potentiation above 80%; inconclusive means 30% to 80%; inactive means below 30%; further: 0% is about no effect
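TRPV1-expressing cells were cultured overnight at 35.5C and loaded with Fluo-8 calcium dye for 40 to 90 min at room temperature. After a 10 s baseline, compound was added and calcium influx was read kinetically for 3 min (ex 480/em 520 nm).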
gsp ag: qHTS for Agonist of gsp, the Etiologic Mutation Responsible for Fibrous Dysplasia/McCune-Albright Syndrome: qHTS; gsp mutant cells, cAMP HTRF, 30 min; control for the full effect not named in the record; Potency, µM (series often up to 76.9 µM), without a hit: at the top dose activation (cAMP increase), usual class: activators; 340,000 compounds, 0.13% hits; AID 624287, 2012; active = well fitted activation curve with a large enough effect; inconclusive = small, poorly fitted or top-dose-only effect, or another doubt; inactive = no such curve, though single readings can be large or run the other way; cell line not stated here;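 further: phosphodiesterase inhibitor Ro 20-1724 added with compounds to block cAMP breakdown; potency means the concentration at half of the fitted maximal effect; nearly all actives have a fitted effect of over 60% in size; about a fifth of the inactives were tested at one dose only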
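Cells stably selected in G418 were plated at 2000/well, grown 16-24 hr, then given compounds in DMSO with the PDE inhibitor […] (300 uM solution added) for 30 min at 37C; cAMP was read by HTRF.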
D2 potentiator: Beta-Arrestin HTS for Positive Allosteric Modulators of the Human D2 Dopamine Receptor: Potentiators | DiscoveRx D2 beta-arrestin cells, luminescence, 90 min; 100% = 57 uM dopamine signal | potentiation, % (no concentration beside the values) | 360,000 compounds, 0.23% hits | AID 624464, 2012; active = potentiation of 50% or more; inconclusive = 30% to 50%; inactive = 30% or less;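 further: compound concentration not given in the record; tested on top of an EC20 dose of dopamine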
Target sequence (P14416 whole entry, looked up): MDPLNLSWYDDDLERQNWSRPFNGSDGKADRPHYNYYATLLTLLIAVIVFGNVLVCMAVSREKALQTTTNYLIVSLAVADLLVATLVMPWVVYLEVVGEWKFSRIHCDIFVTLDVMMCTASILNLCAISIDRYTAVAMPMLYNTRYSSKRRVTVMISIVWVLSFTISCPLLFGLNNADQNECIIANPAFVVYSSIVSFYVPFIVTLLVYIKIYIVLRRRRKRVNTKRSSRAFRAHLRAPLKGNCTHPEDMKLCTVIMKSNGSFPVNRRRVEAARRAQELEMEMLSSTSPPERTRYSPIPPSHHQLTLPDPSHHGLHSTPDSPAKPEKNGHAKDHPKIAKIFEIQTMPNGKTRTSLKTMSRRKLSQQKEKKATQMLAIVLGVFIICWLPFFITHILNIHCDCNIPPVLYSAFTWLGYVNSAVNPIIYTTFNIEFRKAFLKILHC
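PathHunter D2 cells, attached overnight at 37 deg C, received compound in DMSO plus dopamine at EC20 (50 nM final) for 90 min at 37 deg C. Beta-arrestin recruitment was read as luminescence after 1 h with detection reagent at ambient temperature.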
Sfp inh: qHTS Assay for Inhibitors of Bacillus subtilis Sfp phosphopantetheinyl transferase (PPTase); 4'-phosphopantetheinyl transferase ffp (Bacillus subtilis), Q9F4F7; Biochemical Sfp PPTase activity, qHTS; Potency, µM, inactives show max response, negative = inhibition, most hits filed as inhibitors; 310,000 compounds, 3.5% hits; active means well fitted inhibition curve with a large enough effect; inconclusive means small, poorly fitted or top-dose-only effect, or another doubt; inactive means no such curve, though single readings can be large or run the other way;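 further: the enzyme is Sfp with the accession as filed and its product quenches rhodamine fluorescence; potency means the concentration at half of the fitted maximal effect; 0% = enzyme reaction without inhibitor and -100% = no enzyme wells; top concentration of the series not given in the record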
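After 15 min at room temperature with compound, 15 nM Sfp received 5 uM rhodamine-CoA plus 12.5 uM BHQ-2-ybbR (50 mM Hepes pH 7.6, 10 mM MgCl2). Rate came from the fluorescence difference over 30 min, ex 525/em 598 nm.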
The depositor's hits bear a star; ? = inconclusive; . = no result given; [ ] = remark or other dose.

SMILES | Menin-MLL FL inh | gsp antag | ClpP mod | TRPV1 PAM | gsp ag | D2 potentiator | Sfp inh
Cc1ccc(C(=O)OCC(=O)c2c(N)n(C)c(=O)n(C)c2=O)cc1S(=O)(=O)N1CCOCC1 | . | -1% | -1.8% | 3 | -13% | 2 | .
CC1CCc2c(sc(NC(=O)C(=O)NCc3ccco3)c2C#N)C1 (stereo not given) | -1.3 | 5% | -3.1% | 5 | -5% | -2 | 12%
Cc1noc(NS(=O)(=O)c2ccc(N/C=C/C(=O)c3ccccc3)cc2)c1C | 8.0 | 10% | -1.7% | -4 | 35% | -5 | 7%
CN(C)Cc1c(O)ccc2c(=O)c(-c3ccccc3Cl)coc12 | 3.7 | 6% | -4.0% | -2 | 6%[15.4 µM] | -7 | -6%
CC1CCCN(C(=O)C2CCN(c3ncnc4c3nc3n4CCCCC3)CC2)C1 (stereo not given) | . | -4% | 0.9% | 7 | ? | -8 | 1%
C/C(=C1/SC(N2CCOCC2)=NC1=O)c1ccc(Cl)cc1 | 2.0 | 0% | 0.0% | -2 | 10% | -11 | 18%
O=C(CCC(=O)N(CC(=O)NC1CCCCC1)Cc1cccs1)Nc1nccs1 | -7.7 | 6% | 0.1% | 6 | -5% | -1 | 7%
O=c1[nH]c(SCc2ccc(Cl)cc2)nc2ccccc12 | -0.3 | 8% | -0.8% | 0 | 3% | -4 | 29%
Cc1cccc(C)c1NC(=O)CN(C)C(=O)c1ccc(-n2cncn2)c([N+](=O)[O-])c1 | . | 5% | -4.0% | -2 | -7%[15.4 µM] | -19 | .
COC(=O)c1c(NC(=O)CC2SCC(C(=O)OC)NC2=O)sc2c1CCCC2 (stereo not given) | 1.5 | -7% | -5.6% | 6 | -14% | -9 | -22%
Cc1c(C2C(C#N)=C(N)N(c3ccccc3C#N)C3=C2C(=O)CCC3)cnn1C (stereo not given) | 4.5 | -10% | -4.0% | -2 | -6%[15.4 µM] | -9 | -20%
CCOc1cccc(-c2nnc3sc(C4CCCCC4)nn23)c1 | 0.2 | -19% | -0.2% | -12 | -16% | -18 | ?
Cn1c(N)c(C(=O)COC(=O)C2CCCCC2)c(=O)n(C)c1=O | -1.8 | 1% | -2.3% | -21 | ? | -7 | 17%
Cc1ccc(C)n1NC(=O)c1ccccc1[N+](=O)[O-] | 1.2 | -5% | . | 5 | -5% | -1 | -20%
COc1ccc(NC(=O)CCNS(=O)(=O)c2ccc(Br)s2)cc1 | -0.6 | -18% | -1.9% | . | 11% | 3 | 9%

Results in Sfp inh, for some of the entries so far:
| mol | Sfp inh |
| --- | --- |
| Cc1noc(NS(=O)(=O)c2ccc(N/C=C/C(=O)c3ccccc3)cc2)c1C | 7% |
| COc1ccc(NC(=O)CCNS(=O)(=O)c2ccc(Br)s2)cc1 | 9% |

(continued)
SMILES | Menin-MLL FL inh | gsp antag | ClpP mod | TRPV1 PAM | gsp ag | D2 potentiator | Sfp inh
COc1ccc(OC)c(-c2nc3c(C)n[nH]c(=O)c3[nH]2)c1 | -0.8 | 7% | ? | -39 | 5% | 22 | -3%
COc1cc(/C=c2\sc3nc(=O)c(-c4ccccc4)nn3c2=O)ccc1OCCC(C)C | ? | 32%[activator] | 1.4% | 26 | 3%[15.4 µM] | 0 | -29%
COc1ccc(S(=O)(=O)N/N=C(/C)c2ccncc2)cc1 | -3.8 | 10% | -1.9% | 0 | ? | -13 | 1%
CCOc1cccc2cc(C(=O)Nc3nccs3)c(=O)oc12 | 2.9 | 4% | -0.1% | 4 | -34%[inhibitor] | 3 | 16%
COc1cc(C(=O)c2ccccc2)c([N+](=O)[O-])cc1OC | -0.2 | -3% | 0.5% | 2 | 18% | -18 | 24%
C#CCSc1nnc(-c2ccc(C)cc2)o1 | -3.1 | 7% | -3.2% | 4 | 6% | -14 | 7%
COc1ccc(Cn2c(C)c(C)c(C#N)c2NC(=O)Nc2ccc(F)cc2)cc1 | ? | 10% | 1.7% | 6 | -8% | -6 | 21%
CCCCCC(=O)Nc1cccc(C2=NOC3(C2)C[C@@H](C(N)=O)N(C(=O)c2ccc(OC)cc2)C3)c1 (stereo not given in full) | -1.2 | 5% | -6.2% | -25 | . | -5 | 6%
CC(=O)NC1C(=O)N(CCc2ccccc2)c2ccc(Br)cc21 (stereo not given) | 5.6 | -8% | 1.6% | -2 | -38%[inhibitor] | -31 | -18%
COc1ccc(-c2cc(C(=O)OCc3ccccn3)c3ccccc3n2)cc1 | . | ? | . | -12 | 2%[15.4 µM] | -1 | -45%
CN(C)S(=O)(=O)c1cccc(NC(=O)COC(=O)c2cccnc2Cl)c1 | . | -1% | . | . | 51% | -6 | .
O=C1C=CC(=O)N1 | . | 1% | -2.3% | 21 | . | -14 | .
CC(C)c1ccc(S(=O)(=O)N2CCN(C(=O)CN3C(=O)NC4(CCCC4)C3=O)CC2)cc1 | 1.5 | -6% | -2.2% | -4 | -2% | -4 | 12%
Cc1ccc(-c2ccc(=O)n(CC(=O)NCC3COCCO3)n2)cc1 (stereo not given) | . | 3% | . | -1 | -8% | -1 | 12%
CCOc1ccc(N2C(=O)Nc3ccc(Br)cc3C2(O)C(=O)NC(C)C)cc1 (stereo not given) | -1.5 | 9% | . | 1 | 0% | 4 | 14%

Complete entries, quoted from the list. Screens in order: Menin-MLL FL inh | gsp antag | ClpP mod | TRPV1 PAM | gsp ag | D2 potentiator | Sfp inh
COc1cc(C(=O)c2ccccc2)c([N+](=O)[O-])cc1OC reads -0.2 | -3% | 0.5% | 2 | 18% | -18 | 24%
COc1cc(/C=c2\sc3nc(=O)c(-c4ccccc4)nn3c2=O)ccc1OCCC(C)C reads ? | 32%[activator] | 1.4% | 26 | 3%[15.4 µM] | 0 | -29%
COc1ccc(-c2cc(C(=O)OCc3ccccn3)c3ccccc3n2)cc1 reads . | ? | . | -12 | 2%[15.4 µM] | -1 | -45%
COc1ccc(OC)c(-c2nc3c(C)n[nH]c(=O)c3[nH]2)c1 reads -0.8 | 7% | ? | -39 | 5% | 22 | -3%

(listing goes on)
SMILES | Menin-MLL FL inh | gsp antag | ClpP mod | TRPV1 PAM | gsp ag | D2 potentiator | Sfp inh
Cc1nnc(-c2ccccc2)nc1N(C)C | -5.4 | 8% | -1.1% | 9 | 1%[15.4 µM] | -8 | 0%
COc1ccccc1NC(=S)N=Nc1c(O)[nH]c2ccc(Br)cc12 | 7.4 | 5% | -0.8% | 4 | 28% | -14 | -16%
COC(=O)C1=C(C)N(Cc2ccccc2)C(=NCc2ccc(OC)cc2)N[C@H]1c1ccc(Br)cc1 | -6.5 | . | . | 4 | . | . | 2%
CC1=NN(c2nc(-c3ccccc3)cs2)C(=O)C1N=Nc1ccccc1 (stereo not given) | 1.0 | -21% | . | -2 | 14% | -6 | -3%
COc1cc(C(=O)Nc2nc3ccc(S(=O)(=O)N4CCOCC4)cc3s2)cc(OC)c1OC | 8.0 | -7% | -11% | 28 | -28% | -8 | 1%
Cc1ccc(-n2nnc3c(=O)oc4ccccc4c32)cc1 | 1.4 | ? | 1.1% | . | -17% | 5 | 4%
O=C(c1ccco1)N1CCN(C(=O)c2cc(-c3ccccn3)nc3ccc(Cl)cc23)CC1 | 5.2 | -14% | -3.3% | -6 | -9% | 9 | 16µM*
COc1cccc(-c2nnc(NC(=O)Cc3cccs3)s2)c1 | -1.7 | 8% | -22% | -5 | 2% | 4 | -14%
CC(C)CCn1c(SCC(=O)OCn2nnc3ccccc3c2=O)nc2ccccc2c1=O | -1.0 | -20% | 1.9% | -8 | -9% | -16 | 1%
CCCCCC(=O)N/N=C(\C)c1ccc(N2CCCCC2)cc1 | -2.7 | ? | -0.9% | -18 | -4%[15.4 µM] | -5 | -19%
CC(C)OP(=O)(OC(C)C)C(Nc1ccc([N+](=O)[O-])cc1)c1cccc([N+](=O)[O-])c1 (stereo not given) | -1.5 | -7% | 1.5% | 1 | -2% | -10 | 4%
O=C(COc1ncnc2ccccc12)Nc1ccc(Cl)c(S(=O)(=O)N2CCOCC2)c1 | -1.2 | -9% | . | 0 | 13%[15.4 µM] | 2 | 0%
Cc1cc(C(=O)NCC(=O)OCC(=O)NCCc2ccccc2)ccc1[N+](=O)[O-] | -2.2 | 7% | -4.9% | -1 | -2%[15.4 µM] | -7 | 4%
COCCSc1nnc(NC(=O)CSCc2ccccc2)s1 | -3.8 | -5% | 0.0% | 8 | -27% | 0 | 15%
CCc1ccccc1NS(=O)(=O)c1cc(C)ccc1OC | -1.4 | -5% | -1.5% | 2 | -26% | -13 | 15%
O=C(O)CN=C1NC2(CCCCC2)Cc2ccccc21 | 1.4 | -1% | -0.3% | 9 | -2% | -6 | 19%
CN(C)c1nc(=Nc2cccc(Cl)c2)ss1 | ? | -10% | 1.9% | -18 | 6% | -26 | 10µM*
CCOC(=O)N1CCN(C(=O)CNC(=O)Cn2cnc3ccccc3c2=O)CC1 | -6.1 | 10% | . | -3 | 25%[15.4 µM] | -2 | 15%
N#CCCN(C(=O)COC(=O)C1CCN(S(=O)(=O)c2cccs2)CC1)c1ccccc1 | -0.9 | -10% | -1.2% | -7 | ? | -6 | 13%
CC(C)(O)C(=O)NNC(=S)Nc1cccc(C(F)(F)F)c1 | -0.7 | 4% | -0.9% | 3 | -20% | -13 | 8%
Cc1cc(NC(=O)CSc2nnc(-c3ccccc3)n2Cc2ccco2)no1 | 4.7 | -2% | 2.0% | -3 | -20% | -26 | -17%
CCn1ncc(CNC(=O)C2(C)CC2(Br)Br)c1C (stereo not given) | 1.6 | 9% | 0.4% | 1 | -1%[15.4 µM] | -5 | 13%

Source: PubChem BioAssay (National Center for Advancing Translational Sciences (NCATS))
